Assay outcomes from PubChem BioAssay.
TRPML1 blocker = qHTS for Inhibitors of the Human Mucolipin Transient Receptor Potential 1 (TRPML1). TRPML1-inducible cells, Ca2+ dye fluorescence, FDSS; active compounds read low; inhibition of EC80 agonist-evoked calcium signal. activity change, negative = inhibition, % (concentration not given with the values). hit rate 0.02% among 390,000. AID 624415, 2012; in the data active means activity change below about -50%; inconclusive means about -30% to -50%; inactive means above about -30%;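 further: stimulus is agonist 54-4 at its EC80 concentration; on the % scale 0 is the no-effect control and ±100 the full control effect; the text of the record puts the active cut at -80%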
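TRPML1-DL cells, Tet-induced overnight (~16 h, 37 °C) at 1,500 cells/well, were loaded with Ca8 no-wash dye plus quencher for 45-90 min at room temperature. Compounds were pinned during FDSS kinetic reading; agonist 54-4 at EC80 (4 uM final) then added.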
ClpP mod = qHTS Assay for Activators of ClpP; ATP-dependent Clp protease proteolytic subunit (Bacillus subtilis (strain 168)), P80244; purified B. subtilis ClpP, FRET peptide cleavage, 20 min; Potency, µM (top dose mostly 57.5 µM), without a hit: at the highest dose activity change, negative = active; hit rate 1.9% among 340,000; active = well fitted falling curve with a large enough effect; inconclusive = small, poorly fitted or top-dose-only effect; inactive = no such curve, though single readings can be large or run the other way; further: potency means the concentration at half of the fitted maximal effect; the source files actives as falling curves though it sought activators and does not explain the sign; nearly all actives have a fitted effect of over 65% in size; many hits overshoot -100%
Target sequence (P80244 whole entry, looked up): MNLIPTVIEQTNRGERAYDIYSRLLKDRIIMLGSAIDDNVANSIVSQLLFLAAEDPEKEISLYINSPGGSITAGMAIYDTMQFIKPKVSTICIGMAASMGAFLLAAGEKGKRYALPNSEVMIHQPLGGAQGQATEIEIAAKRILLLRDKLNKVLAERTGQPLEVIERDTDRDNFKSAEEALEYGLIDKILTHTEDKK
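Buffer: 100 mM Tris/HCl pH8, 100 mM KCl, 0.05% low protease BSA, 2.5% glycerol, 0.01% Tween-20. ClpP 10 microg/mL final; 20 min RT; delta FRET normalized to ADEP and DMSO controls.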
TRPML1 ag = qHTS for Agonists of the Human Mucolipin Transient Receptor Potential 1 (TRPML1). Mucolipin-1 (Homo sapiens), Q9GZU1. TRPML1-expressing cells, Ca2+ dye fluorescence, FDSS; host cell line not named in the record; reference of the full effect not given here. hit rate 0.12% among 410,000. activation, % (concentration not given with the values); in the data active = activation above about 50%; inconclusive = about 30% to 50%; inactive = below about 30%; further: 0% is about no effect; the text of the record puts the active cut at 80%
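Tetracycline-induced TRPML1-DL cells are seeded and incubated overnight before loading with a no-wash Ca2+ dye and quencher. Agonist activity is taken from the 110 s fluorescence read following compound pin-transfer on an FDSS, before EC80 54-4 challenge.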
Menin MLL FP FL = qHTS Assay for Inhibitors Targeting the Menin-MLL Interaction in MLL Related Leukemias: Competition With Fluorescein Labeled MLL-derived Peptide. Fluorescence polarization, fluorescein-MLL peptide displacement from menin. FP activity change, % at 61.4 µM. 290,000 tested, under 10 active. AID 1766, 2009; inconclusive = falling polarisation curve, or a change in total fluorescence; inactive = total fluorescence flat and polarisation flat or rising; no compound was filed as active; the % refers to the polarisation; negative = inhibition;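 further: % of control where 0% means no effect; inhibitors lower the polarisation; unlabelled MLL peptide was the positive control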
PINK1 modulator = A Quantitative High throughput Screen to Identify Chemical Modulators of PINK1 Expression | Potency, µM (titrated, usually from 76.6 µM), inactives show top-dose activation (PINK1 increase), most hits filed as activators | PINK1 immunofluorescence, high-content cytometry, 24 h | hit rate 0.2% among 410,000; active = well fitted activation curve with a large enough effect; inconclusive = small, poorly fitted or top-dose-only effect; inactive = flat fitted curve, though single readings scatter; cell line not stated here;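 further: potency means the concentration at half of the fitted maximal effect; % of control where 0% means no effect; nearly all actives have a fitted effect of over 65% in size; a mitochondrial uncoupler was the plate control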
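Fluorescence from anti-PINK1 antibody, together with nuclear and cell stains, was scanned on a laser-scanning cytometer. Before staining, stable-line cells were incubated 24 hours with compounds at 5 concentrations; primary antibody 12 h at 10 degrees C.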
TRPV1 potentiator = HTS Assay for Compounds that Act as Potentiators of the Vanilloid Receptor 1. AID 540277, 2011. hit rate 0.02% among 320,000. potentiation, % at 8.33 µM. TRPV1-expressing cells, Fluo-8 calcium influx, capsaicin EC20 potentiation; host cell line not named in the record; control for the full effect not named in the record; active means potentiation above 80%; inconclusive means 30% to 80%; inactive means below 30%; further: 0% is about no effect
Target sequence (Q8NER1 whole entry, looked up): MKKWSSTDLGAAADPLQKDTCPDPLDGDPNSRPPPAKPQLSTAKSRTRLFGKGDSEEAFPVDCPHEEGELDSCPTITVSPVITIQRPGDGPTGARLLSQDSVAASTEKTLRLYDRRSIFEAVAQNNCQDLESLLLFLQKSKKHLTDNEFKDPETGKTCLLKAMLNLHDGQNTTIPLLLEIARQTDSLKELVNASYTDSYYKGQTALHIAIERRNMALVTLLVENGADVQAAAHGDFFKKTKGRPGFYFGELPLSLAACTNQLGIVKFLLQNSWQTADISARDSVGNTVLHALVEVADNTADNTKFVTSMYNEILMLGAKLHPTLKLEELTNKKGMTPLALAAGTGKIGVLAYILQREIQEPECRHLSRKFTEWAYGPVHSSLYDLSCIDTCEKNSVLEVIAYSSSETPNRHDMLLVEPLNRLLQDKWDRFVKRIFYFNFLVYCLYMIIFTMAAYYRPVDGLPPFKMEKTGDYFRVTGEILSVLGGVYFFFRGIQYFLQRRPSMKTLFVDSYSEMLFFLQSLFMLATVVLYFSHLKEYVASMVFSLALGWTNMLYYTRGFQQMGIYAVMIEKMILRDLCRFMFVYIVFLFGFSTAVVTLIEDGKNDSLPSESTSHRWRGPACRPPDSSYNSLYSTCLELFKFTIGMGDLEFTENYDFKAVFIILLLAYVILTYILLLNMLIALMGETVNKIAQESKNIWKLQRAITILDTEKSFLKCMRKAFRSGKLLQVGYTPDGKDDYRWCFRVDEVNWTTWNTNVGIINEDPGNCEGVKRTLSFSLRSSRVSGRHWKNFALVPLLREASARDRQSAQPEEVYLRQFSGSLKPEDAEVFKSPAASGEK
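Fluo-8 calcium influx in TRPV1-expressing cells, kinetic read (ex 480/em 520 nm). Compound added and read 3 min for agonist activity, followed by capsaicin at EC20 final and 2 min further read for enhancement.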
Sfp inh = qHTS Assay for Inhibitors of Bacillus subtilis Sfp phosphopantetheinyl transferase (PPTase) | 4'-phosphopantetheinyl transferase ffp (Bacillus subtilis), Q9F4F7 | Biochemical Sfp PPTase activity, qHTS | Potency, µM, inactives show max response, negative = inhibition, most hits filed as inhibitors | hit rate 3.5% among 310,000 | AID 1490, 2009; active means well fitted inhibition curve with a large enough effect; inconclusive means small, poorly fitted or top-dose-only effect, or another doubt; inactive means no such curve, though single readings can be large or run the other way;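 further: the enzyme is Sfp with the accession as filed and its product quenches rhodamine fluorescence; potency means the concentration at half of the fitted maximal effect; 0% = enzyme reaction without inhibitor and -100% = no enzyme wells; top concentration of the series not given in the record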
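After 15 min at room temperature with compound, 15 nM Sfp received 5 uM rhodamine-CoA plus 12.5 uM BHQ-2-ybbR (50 mM Hepes pH 7.6, 10 mM MgCl2). Rate came from the fluorescence difference over 30 min, ex 525/em 598 nm.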
Numbers without * were called inactive; ? = inconclusive; . = not tested or not shown; [ ] = dose if it differs, or a comment.

SMILES	TRPML1 blocker	ClpP mod	TRPML1 ag	Menin MLL FP FL	PINK1 modulator	TRPV1 potentiator	Sfp inh
COc1ccc(S(=O)(=O)N2CCCOC2CNC(=O)C(=O)NCCO)cc1 (configuration not stated)	-7	-0.9%	-0.3	.	1.2%	.	.
C(=C\c1nc2ccccc2o1)/c1ccc2c(c1)OCO2	.	8.2%	0.6	.	11%	.	.
Cc1cc(C)c(NC(=O)Cn2c(=O)n(-c3cccc(C(F)(F)F)c3)c(=O)c3c(C)c(C)sc32)c(C)c1	-10	0.0%	0.6	.	0.7%	.	.
CN(CC(=O)NC1CC1)S(=O)(=O)c1cc(Cl)ccc1Cl	-7	-1.1%	-0.2	.	2.1%	5	-1%
COc1ccc(Nc2oc(-c3ccc(COc4ccccc4)o3)nc2C#N)cc1	19	-15%	0.4	.	6.5%	.	.
Cc1ccc(N(CC(=O)NC2CCCCC2)C(=O)CNC(=O)c2ccco2)c(C)c1	27	.	0.7	3.3	-0.4%	25	15%
O=C(Nc1cccc(S(=O)(=O)NC2=NCCC2)c1)c1cc(Cl)ccc1[N+](=O)[O-]	-8	?	0.1	.	-1.8%	-5	.
COc1ccccc1C(=O)Nn1cnc2ccccc2c1=O	-4	-2.4%	-0.1	2.8	-3.3%[38.3 µM]	-4	9%
CN(C)CCCNC(=O)/C(=C\c1ccc(-c2cccc([N+](=O)[O-])c2)o1)NC(=O)c1ccccc1	20	.	-0.4	-5.3	0.8%	5	9%
O=C(COC(=O)CCCNC(=O)c1ccc(Cl)cc1)NC1CC1	-9	-0.8%	-0.6	0.7	-1.5%	20	-18%
Nc1nc(SCC(=O)Nc2ncc(C(F)(F)F)cc2Cl)n[nH]1	-4	.	-0.1	1.8	-0.4%	-11	4%
Fc1ccc(NC(=S)NC2CC3CCCC(C2)N3Cc2cccs2)cc1 (configuration not stated)	22	.	0.4	-7.5	-0.2%	-9	25%
COc1ccc(C(=O)COC(=O)COc2cc(C)cc(C)c2)cc1	23	-3.6%	4.5	.	-2.5%	2	3%
CC(C)NC(=O)COC(=O)c1cc(Br)ccc1Cl	-6	0.4%	-0.1	4.7	11%	-2	8%
CC(C)(C)C1CCC(=NNS(=O)(=O)c2ccc(Br)cc2)CC1 (configuration not stated)	2	1.2%	-1.0	-0.8	-1.1%	5	14%
CCN(CC)S(=O)(=O)c1cc([N+](=O)[O-])ccc1N=Nc1c(O)[nH]c2ccccc12	18	-0.9%	0.4	?	11µM*	0	10%
NS(=O)(=O)c1cccc(NC(=O)CCc2ccc(S(=O)(=O)N3CCOCC3)cc2)c1	17	.	1.3	.	0.8%	26	.
CCOc1ccc(C(=O)CCC(=O)NC(C)C(=O)OC)cc1 (configuration not stated)	-10	.	0.1	2.3	1.0%	1	16%
O=C(NCCc1ccc(F)cc1)c1cccc2c1C(=O)c1ccc(N3CCC(Cc4ccccc4)CC3)cc1S2(=O)=O	-1	-1.2%	25	.	-0.9%	.	.
CCc1nc2ccc(C(=O)NCCCn3ccnc3)cn2c1N(C)Cc1cccs1	.	-3.6%	-0.9	.	1.7%	.	.
O=C(NCc1cccc(C(F)(F)F)c1)c1ccc2sc([C@H]3C[C@H](O)[C@@H](CO)O3)nc2c1	.	-0.2%	-0.3	.	3.3%	.	.
COc1ccc(-c2c(-c3cc(OC)cc(OC)c3)n(C)c3ccc(-c4ccc5[nH]ccc5c4)cc23)cc1	-13	4.3%	-0.6	.	0.2%	-2	.
O=C(CSc1nnc(-c2cccc(S(=O)(=O)N3CCCCC3)c2)o1)NCCC1=CCCCC1	15	-8.3%	1.7	1.2	0.6%	16	9%
CCOC(=O)C(=CNc1ccc(S(N)(=O)=O)cc1)C(=O)OCC	-6	.	0.0	0.9	-0.5%	12	22%
O=C(c1ccccc1)N1N=C(c2cccs2)CC1c1ccccc1O (configuration not stated)	.	-9.6%	.	0.8	2.7%	-8	?
CCCCCCC(=O)Nc1ccc(Br)cn1	.	0.1%	.	0.0	10%	-2	12%
O=C(Nc1ccc(NC(=O)c2ccccc2)c2ccccc12)c1ccccc1	-4	-12%	-0.1	.	11%	.	.
Cc1ccc(N2CCN(/N=C/C3=C(N4CCOCC4)C(=C\c4ccccc4)/CC3)CC2)cc1	29	-1.3%	-0.6	-1.5	2.0%	-2	1%
CCc1ccc(NC(=S)N2CCCC2)cc1	-4	-1.9%	-0.1	.	-0.8%	-11	4%
c1ccc(-c2ccccc2OCCCCN2CCCCC2)cc1	46	-0.1%	-0.2	3.4	-0.2%	-5	-12%
CCc1nnc(NS(=O)(=O)c2ccc(NC(=O)c3cccc4ccccc34)cc2)s1	53	.	-0.3	0.2	1.6%	?	27%
C=CCn1c(SCC(=O)NCc2ccco2)nc2sc(C)c(C)c2c1=O	-13	0.1%	5.6	.	-0.6%[38.3 µM]	.	.
COCCN1C(=O)C(=O)/C(=C(/O)c2cccc(OC)c2)C1c1ccco1 (configuration not stated)	2	-2.2%	-0.1	-0.6	0.1%	-4	-7%
Cc1ccc(C2=NN(CC(=O)NCc3ccco3)C(=O)CC2)cc1	-4	1.4%	-0.1	1.2	-1.0%	-5	12%
CCCCOC(=O)C1=C(C)NC(=O)NC1c1ccccc1 (configuration not stated)	.	-0.5%	.	-1.5	0.7%	22	13%
CCCNC(=O)CCc1cc(C(C)(C)C)c(O)c(C(C)(C)C)c1	31	-1.6%	2.5	3.9	2.8%	-17	23%
Cc1ccccc1NC(=O)Cn1c(=O)oc2cc(Br)ccc21	50	1.9%	0.5	.	3.3%	.	.
Cc1ccc(CNC(=O)C2CCN(C(=O)N3CC(C)Oc4ccc(Cl)cc43)CC2)cc1 (configuration not stated)	9	-0.4%	-0.5	.	5.3%	.	.
Cc1nnc(SCCn2c(Br)nc3c2c(=O)n(C)c(=O)n3C)s1	-5	-0.8%	-0.4	2.9	?	-2	18%
CCn1nccc1NC(=O)c1csc([C@@H]2O[C@H](CO)[C@H](O)[C@H](O)[C@H]2O)n1	.	0.8%	-0.2	.	0.4%	.	.
Cc1ccc(C)c(N2CCN(c3ccc4cc(S(=O)(=O)N5CCC(C)CC5)ccc4n3)CC2)c1	-27	-8.2%	16	.	4.2%	.	.
O=C(Nc1cc2c(cc1C(=O)c1ccccc1Br)OCCO2)c1ccccc1	2	13%	0.7	.	-0.2%	.	.
COC(=O)[C@@]1(Cc2ccc(F)cc2)[C@H]2c3cc(C(=O)N(C)C)n(CC4CC4)c3C[C@H]2CN1C(=O)c1ccccc1	.	3.6%	4.8	-0.4	1.2%	.	-1%
CCCC(C(=O)NC1CCCC1)N(CC1CCCO1)C(=O)CNS(=O)(=O)c1ccc(F)cc1 (configuration not stated)	-8	.	-0.1	-1.7	-0.2%	1	6%
CC(C(=O)Nc1ccc2c(c1)OCCO2)N(c1ccccc1)S(C)(=O)=O (configuration not stated)	1	-0.8%	0.0	0.9	0.7%	-10	13%
COc1ccc(N(CC(=O)Nc2nccs2)S(=O)(=O)c2c(C)nn(C)c2C)cc1	-4	-3.5%	-0.7	-0.1	-0.5%	.	4%
Clc1ccc(/C=N/c2c(-c3ccc(Cl)cc3)nc3n2CCS3)cc1	6	0.9%	0.5	2.9	?	22	9%
Cc1ccc2oc(C(=O)Nc3c(C(=O)Nc4ccccc4)oc4ccccc34)cc(=O)c2c1	7	0.0%	-0.6	.	0.5%	.	.
CCOc1cccc2cc(S(=O)(=O)c3ccccc3F)c(=O)oc12	10	-1.5%	0.1	.	4.1%	.	.
O=C(c1cc(-c2ccc(Cl)cc2)n(-c2cc(Cl)ccc2Cl)n1)N1CCOCC1	22	-2.4%	1.3	1.7	0.1%	-5	-26%
COCCNC(=O)C1(C)CCN(C(=O)c2ccc(OC)c(F)c2)C1 (configuration not stated)	.	0.2%	-0.4	.	1.2%	.	.
Brc1cccc(CNc2nc3ccccc3n2CCN2CCCCC2)c1	-1	-2.0%	2.7	0.3	?	-20	1%
CCCNCC1COc2ccccc2O1 (configuration not stated)	-16	-3.2%	-0.5	2.2	-1.2%[38.3 µM]	-5	0%
CN=c1sc2c(n1C)C(=O)c1ccccc1C2=O	9	1.6%	0.0	.	8.6%	.	.
COc1ccc(-n2nc3cc(C)c(NC(=O)c4ccc(C)cc4C)cc3n2)cc1Cl	12	-19%	0.1	.	1.8%	.	.
O=C(NCCc1ccc(Cl)cc1)Nc1ccc(Cl)cc1	5	-0.4%	0.4	0.8	1.8%	-22	5%
O=C(Nc1ccc(N2CCN(C(=O)c3cccs3)CC2)c(Cl)c1)c1cccnc1	-1	1.1%	0.1	-1.9	-0.4%	-1	?
COc1ccc(OC)c(NC(=O)C23CC4CC(C2)CC(n2cnc(Br)n2)(C4)C3)c1	-9	-1.7%	1.2	4.5	8.6%[38.3 µM]	-19	7%
CCOc1nc(NCc2ccco2)nc(Nc2ccc(OC)cc2)n1	4	0.3%	0.1	1.2	-0.1%	1	2%
CC(C)CCn1c(/C=C/c2ccccc2)nc2ccccc21	-1	3.9%	2.0	.	6.2%	.	.
(listing goes on)
SMILES	TRPML1 blocker	ClpP mod	TRPML1 ag	Menin MLL FP FL	PINK1 modulator	TRPV1 potentiator	Sfp inh
CCC(C)c1ccccc1NC(=O)C(C)NCCN(C)C (configuration not stated)	9	1.0%	-0.4	1.3	-0.8%	-11	79µM*
COc1ccc2oc(-c3cccc(NC(=O)c4cc([N+](=O)[O-])ccc4N4CCOCC4)c3)nc2c1	6	-1.3%	0.1	.	2.6%	.	.
Cc1csc(=O)n1CCC(=O)OCC(=O)N(C)c1c(N)n(Cc2ccccc2)c(=O)[nH]c1=O	-6	-0.8%	-1.0	.	0.6%	.	.
Cc1cc(NC(=O)c2c(-c3ccccc3Cl)noc2C)no1	31	-5.0%	-0.2	0.1	-1.3%	1	-6%
